Ab BasE inh – inhibitors of Acinetobacter baumannii siderophore enzyme BasE. purified BasE, fluorescence polarization binding displacement. inhibition, % (no concentration beside the values). hit rate 0.1% among 84,000. AID 485350;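 active = both replicates above 25% with normal brightness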;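 also: 0% = negative plate control signal and 100% = positive plate control signal; stock transfer was 100 nL into about 30 µL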
KSHV LANA nucl – LANA-nucleosome interaction inhibition | z-score (test concentration not listed) | FITC-LANA1-23 / chicken nucleosome fluorescence polarization; hits give low values | hit rate 0.3% among 51,000 | AID 720717;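 active = both repeat wells score below -2 in polarization z-score versus plate sample wells, excluding overly bright wells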;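 also: 100 nL library stock added to about 30 µL; numbers are from one replicate; some results filed as inactive read as strong as hits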
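Assay system: purified chicken nucleosomes with FITC-labelled LANA N-terminal peptide (1-23) / Probe or stimulus: 50 nM FITC-LANA1-23 probe / Compound dosing: pin-transferred compound, 100 nL / Times: compound with peptide–nucleosome mix 10–45 min at room temperature / Technique: fluorescence polarization, 480 nm excitation, 535 nm parallel and perpendicular emission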
* marks the source's active call; other numbers are inactive results; · = no result given.

structure	Ab BasE inh	KSHV LANA nucl
O=C(/C=C/c1ccco1)NCc1ccccc1	-0.4	-1.1
COC(=O)C(CC(=O)c1ccc(Br)cc1)n1nc(C)cc1C (configuration not stated)	2.3	0.36
CCOC(=O)c1ccc(N2C(=O)CC(N3CCN(Cc4ccccc4Cl)CC3)C2=O)cc1 (configuration not stated)	3.9	-0.23
CCOC(=O)c1c(C)oc(NC(=O)COc2ccc(Cl)cc2Cl)c1C#N	2.1	·
N#CC(C(=O)C1COc2ccccc2O1)c1nc2ccccc2s1 (configuration not stated)	0.6	·
CN(C(=O)Cn1cnc2onc(-c3ccc(F)cc3)c2c1=O)c1ccc(Br)cc1	-2.8	·
CC(C)(C)C(=O)/C=c1\[nH]c(=O)/c(=C\c2cn(CCC#N)nc2-c2ccccc2)s1	-3.4	·
CCOC(=O)/C(C#N)=C(\C)C1CCCCC1	1.4	·
O=c1/c(=C/c2ccc(-c3ccc(F)cc3)o2)sc2nc3cc(Br)cnc3n12	-0.5	-0.78
O=C(Nc1ncn[nH]1)c1ccc(Cl)cc1Cl	-0.7	1.1
COC(=O)c1ccc2c(=O)[nH]c(COC(=O)c3ccc4c(c3)OCCO4)nc2c1	-0.8	·
CC(C)N(CC(N)=O)c1ncnc2sc3c(c12)CCC3	-0.5	·
NS(=O)(=O)/C=C/c1ccc(Cl)cc1	0.0	·
O=C(c1n[nH]c(=O)c2ccccc12)N1CCN(C2c3ccccc3-c3ccccc32)CC1	-0.9	·
CC(C)NC(=O)NC(C)C	2.0	·
O=c1[nH]c2ccccc2cc1CO	2.3	-0.95

Single records, from the list above.
NS(=O)(=O)/C=C/c1ccc(Cl)cc1 is listed with Ab BasE inh: 0.0; KSHV LANA nucl: ·
O=C(Nc1ncn[nH]1)c1ccc(Cl)cc1Cl is listed with Ab BasE inh: -0.7; KSHV LANA nucl: 1.1

Continuation.
structure	Ab BasE inh	KSHV LANA nucl
COC(=O)c1cc(S(=O)(=O)N2CCc3ccccc3C2)c[nH]1	-0.1	-1.6
N#Cc1c(NC(=O)/C=C\C(=O)O)sc2c1CCCC2	1.6	1.1
Cc1sc2ncn3ncnc3c2c1C	-1.5	-0.46
CC(=O)Nc1ccc(S(=O)(=O)N(C)c2ccc(O)c(N=Nc3cccc4c(=O)[nH][nH]c(=O)c34)c2)cc1	4.0	·
Cc1c(C)c(NC(=O)/C=C/C(=O)O)c(C)c(C)c1NC(=O)/C=C/C(=O)O	-3.8	·
COc1ccc2nc(Cl)c(CN(C(=O)c3ccco3)C3CCCC3)cc2c1	-0.9	-0.82
Cc1nn2c3c(sc2nc1=O)C(=O)N(c1ccc(F)c(Cl)c1)C3=O	0.2	0.29
COc1ccc(-c2nnc3[nH]c(=O)cc(C)n23)cc1	1.1	·
CCOC(=O)C1=C(CSc2nnc(-c3cccs3)n2-c2ccccc2)NC(=O)NC1C (configuration not stated)	-0.3	·
CC(C)(C)c1csc(-c2sccc2COc2ccc(Cl)cc2)n1	0.5	·
COc1ccc(CCNC(=O)c2cn(C)c(=O)c3cc(OC)c(OC)cc23)cc1OC	0.2	-0.49
Cc1ccc(Nc2nnc(SCC(=O)N(C)C)s2)cc1	0.1	·
NC(C(=O)O)c1ccsc1 (configuration not stated)	·	-0.53
O=c1nc(Nc2ccc(OC(F)(F)F)cc2)oc2ccccc12	-1.4	·
O=C1Nc2ccc(S(=O)(=O)Nc3ccccc3)c3cccc1c23	-0.4	0.0025
O=C(O)c1ccc(CN2C(=O)CSc3ccccc32)o1	·	0.38
Cc1csc(=O)n1CC(=O)OCC(=O)N(C)c1c(N)n(Cc2ccccc2)c(=O)[nH]c1=O	-1.4	·
CCOC(=O)C1CCN(C(=O)CN2C(=O)c3ccccc3C2=O)CC1	-0.5	·
CC(=O)NC12CC3CC(C)(C1)CC(NC(C)=O)(C3)C2	0.7	-0.21
Cc1cc(CC(=O)NN)n[nH]1	0.1	·
O=S1(=O)CCC(S(=O)(=O)NCc2ccco2)C1 (configuration not stated)	1.0	-0.91
CCN1CCN(c2nc(C)c3c(n2)CC(c2ccco2)CC3=O)CC1 (configuration not stated)	-2.3	0.27
CCN1CCN(c2cc(C)c3cc(NC(=S)NC4CCCC4)ccc3n2)CC1	0.3	0.62
CN1CCC(N(C)C(=O)Nc2c[nH]c3ccccc23)CC1	-1.4	-0.46
CCn1c(CCC(=O)NC(C#N)c2ccc(F)cc2)nc2cc(S(=O)(=O)N(C)C)ccc21 (configuration not stated)	0.7	·
Cc1sc2c(c1C)C1=NS(=O)(=O)CCN1C=N2	3.4	·
CCN1C(=O)N(CC)C2NC(=S)NNC21 (configuration not stated)	-1.4	0.4
C/C(=C(/CCO)SSCC1CCCO1)N(C=O)Cc1cnc(C)nc1N (configuration not stated)	-0.6	-0.048
O=C(CNS(=O)(=O)c1cccc(C(F)(F)F)c1)NC1CCCCCC1	-2.5	·
O=S(=O)(c1ccccc1)N1CCCC(c2nc(-c3cccs3)no2)C1 (configuration not stated)	0.1	0.37
Nc1nc(CN2CCCCC2)cs1	2.8	0.099
C=C(C)C1CCC(C)=C1COC(=O)c1ccccc1 (configuration not stated)	0.0	0.53
Cc1ccc2onc(CNC(=O)N3CCc4ccccc43)c2c1	1.7	0.67
COc1ccccc1OCC(=O)Nc1ccc(S(=O)(=O)N2CCN(C)CC2)cc1	-0.4	1.6
CCOc1ccc(C(=O)Nc2cc(OC)c(OC)cc2C(=O)OC)cc1	0.8	0.21
N#Cc1cccc(NC(=O)C(F)(F)F)c1	3.1	-0.98
CN(/C=C/C(=O)C(F)(F)F)c1ccccc1C(=O)O	-1.4	·
O=C(O)C1CCCCN1Cc1cccc(F)c1 (configuration not stated)	-2.1	0.51
CC(=O)O/N=C(\N)COc1ccc(-c2nnco2)cc1	-0.2	-0.69
CC(CN1CCCN(C)CC1)c1ccccc1 (configuration not stated)	1.7	-0.78
O=C(O)CSc1nnc(NC2CCCCC2)s1	1.8	·
Cc1cc(C)c2[nH]c(=O)c(CN(CCN3CCOCC3)C(=O)Nc3ccc(F)cc3)cc2c1	-1.3	0.21
CCOc1ccc(C(=O)NCCO)cc1	-0.5	0.54
CCN(c1cccc(C)c1)S(=O)(=O)c1ccc2c(c1)N(C)CCO2	2.7	0.89
Nc1ccc(-c2nc3ccc(-c4nc5ccccc5o4)cc3[nH]2)cc1	-1.1	1
Cc1ccc(/C(C#N)=C/c2ccc(N(C)C)cc2)cc1	-0.4	·
COc1ccc(NC(=O)N2CCC(c3nc4ccccc4[nH]3)CC2)cc1	1.5	-0.15
CCCCC(=O)OCc1nc(N)nc(Nc2ccccc2C)n1	-1.5	·
CCOc1ccc(NC(=O)CCOc2ccccc2)cc1	-0.3	·
O=C1CSC(c2ccc(Cl)cc2)N1O (configuration not stated)	-0.4	1.3
CN(CC(=O)Nc1ccccc1)CC(=O)Nc1ccc(F)cc1	-1.4	·
O=C(COC(=O)/C(=C/c1cccs1)c1cccs1)Nc1ccccc1	1.7	·
Cc1[nH]c(C)c(S(=O)(=O)N(Cc2ccco2)C2CCCCC2)c1C(=O)N1CCCC1	2.1	-0.26
COc1cc(Br)cc(C=Nc2ccccc2)c1O	·	0.99
CC(CC(=O)NN)C1(O)CCCCC1 (configuration not stated)	1.8	0.05
CC(=O)Nc1ccc(Nc2ncnc3c2cnn3Cc2ccc(Cl)cc2)cc1	0.6	-1.6

(listing goes on)
structure	Ab BasE inh	KSHV LANA nucl
COc1ccc2c(c1OC)C(=O)N(c1ncn[nH]1)C2	-0.2	·
O=C1Nc2cc3c(cc2Sc2ccccc21)OCCO3	0.4	·
CCN(CC)c1ccc(NC(=O)c2oc3ccc4c(c3c2C)C(=O)CC(C)(C)O4)c(C)c1	-3.8	0.32
O=C(c1cc2c(Cl)ccc3c2n1CCO3)N1CCN(c2ccccc2F)CC1	7.9	-0.35
COc1ccccc1CCC(=O)Nc1ccc2c(c1)OCCCO2	0.5	·
CC(NC(=O)COc1ccccc1)C1COc2ccccc2O1 (configuration not stated)	-0.7	·
O=C(O)c1ccc(C2SCC(=O)N2Cc2ccccc2)cc1 (configuration not stated)	5.0	-0.27
Cc1nc2sccn2c(=O)c1S(=O)(=O)N1CCC2(CC1)OCCO2	1.1	-0.63
CCC(Nc1ccccc1)C(=O)N/N=C/c1cccs1 (configuration not stated)	1.9	-0.34
O=C(COC(=O)CC1SC(N2CCCC2)=NC1=O)Nc1ccc(Br)cc1 (configuration not stated)	-0.5	·
N#Cc1ccc(OC(=O)c2cnccn2)cc1	-0.2	·
O=C1OC(c2cccc(F)c2)=N/C1=C\c1cccc2ccccc12	3.8	·
CCn1nc(C)cc1/C(N)=N/OC(=O)c1ccc(C(C)(C)C)cc1	-3.9	0.51
Cc1ccc(/C=C/C(=O)OC(C)C(=O)c2cccc(Cl)c2)o1 (configuration not stated)	6.1	·
CCCc1cc2c(=O)c(-c3ccc4c(c3)OCO4)c(C)oc2cc1OC(C)=O	-1.9	·
COc1ccc(CNc2ncnc3c2oc2ccccc23)cc1OC	-0.4	·

Given with values under each structure: entries from further up
Values run as follows: Ab BasE inh	KSHV LANA nucl
- O=C(Nc1ncn[nH]1)c1ccc(Cl)cc1Cl
    -0.7	1.1
- COC(=O)c1ccc2c(=O)[nH]c(COC(=O)c3ccc4c(c3)OCCO4)nc2c1
    -0.8	·
- CC(C)N(CC(N)=O)c1ncnc2sc3c(c12)CCC3
    -0.5	·
- NS(=O)(=O)/C=C/c1ccc(Cl)cc1
    0.0	·
- O=C(c1n[nH]c(=O)c2ccccc12)N1CCN(C2c3ccccc3-c3ccccc32)CC1
    -0.9	·

More results.
structure	Ab BasE inh	KSHV LANA nucl
CCc1ccccc1N(CC(N)=O)S(=O)(=O)c1ccccc1	1.6	0.45
CC1SC(c2ccc3c(c2)OCO3)N(c2nc3ccccc3s2)C1=O (configuration not stated)	2.6	0.72
Cc1cccc(Cl)c1-n1sc(=O)n(CC2CC2)c1=O	2.2	·
CN1CC(=O)N(CCCC(=O)OCc2c(Cl)cccc2Cl)C1=O	2.5	·
Cn1c(=O)[nH]c(=O)c2[nH]c(Br)nc21	-1.2	-0.52
CC(=O)Oc1ccc2c(c1)CCC1C2CC[C@@]2(C)C1CC[C@@H]2OC(C)=O (some centres not stated)	-0.4	0.006
O=C(CSc1nnc2ccccn12)NCC(=O)Nc1ccc(F)cc1	2.6	·
COc1ccccc1-c1nnc(SCCNc2ncnc3sc4c(c23)CCC4)n1C	1.5	·
COc1ccc(CN(C)/C(C)=C/C(=O)C(F)(F)F)c(OC)c1OC	3.8	·
CCC(NC(=O)c1ccc(C#CC2(O)CCCCC2)cc1)C(=O)O (configuration not stated)	0.8	-0.1
Cc1nn(CC(=O)O)c(C)c1C	-0.2	-0.42
CC(C#N)Sc1nnc(-c2nn(Cc3ccccc3)c(=O)c3ccccc23)o1 (configuration not stated)	-1.5	·
Cc1cc(CNCc2ccc(CN3CCOCC3)cc2)c(C)n1-c1ccnn1C(C)C	3.2	·
CC(C)N1C(=O)C2C3C=CC(O3)C2C1=O (configuration not stated)	1.5	-0.19
CS/C(=N\S(=O)(=O)c1cc(C(F)(F)F)cc(C(F)(F)F)c1)N1CCOCC1	2.1	·
O=c1[nH]ccn(-c2cccc(Cl)c2)c1=O	1.4	-0.44
CN(C(=O)C1CCCN(c2ncnc3onc(-c4ccc(F)cc4)c23)C1)c1ccccc1 (configuration not stated)	-1.1	·
Cc1[nH]c(=O)c(C#N)c(C)c1CCC(=O)O	0.8	·
O=c1cc(CSCc2n[nH]c(=O)[nH]2)c2ccccc2[nH]1	-0.1	0.74
FC(F)Sc1ccc(N=C=S)cc1	1.4	·
Cc1cccc(-n2nc(C)c(C(=O)N3CCc4ccccc43)c2-n2cccc2)c1	-0.8	·
CC(C)C1C(C#N)=C(N)Oc2n[nH]c(-c3ccccc3)c21 (configuration not stated)	1.5	·
CC1(C)CC2CC(C)(CN2C(=O)COC(=O)c2ccc(S(=O)(=O)NCc3ccco3)cc2)C1 (configuration not stated)	2.5	·
COC(=O)c1ccc2c(=O)[nH]c(COC(=O)CNC(=O)c3cccs3)nc2c1	3.2	·
O=C(CSc1nc2sc3c(c2c(=O)n1Cc1ccco1)CCC3)c1cccs1	-0.6	0.54
O=C(OCC(=O)c1ccc[nH]1)c1ccccc1	-0.7	·
CC(C)[C@H](NC(=O)c1ccco1)C(=O)NC1CC1	1.7	·
CCNS(=O)(=O)c1ccc(C)cc1	4.1	-0.19

Not all compounds are listed, so the mix of outcomes need not match the whole.
